Assay outcomes deposited in PubChem by Fisher Drug Discovery Resource Center.
NPYLR7 ag – mosquito NPYLR7 agonism | HEK293T NPYLR7/Galpha15, GCaMP6s calcium fluorescence | activation, % at 10 µM | actives 0.15% (n = 270,000) | AID 1259423; in the data active = activation above about 40%;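 note: 0% = vehicle and 100% = reference agonist at the receptor; some compounds past the cut are filed as inactive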
NPYLR7 ag max-min – also measured in NPYLR7 ag; calls as there; activation, %; measured here: Max-Min RFU normalised activation; some inactives read as strong as hits;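 span of the calcium signal over five minutes; 0% = vehicle and 100% = native peptide agonist; compound fluorescence can raise it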
The depositor's hits bear a star; & = joins results of further samples.

Preview (16 entries):
SMILES	NPYLR7 ag	NPYLR7 ag max-min
CCc1ccc(NC(=O)c2cn(CC3CCCO3)cc3c(=O)n(-c4ccccc4)nc2-3)cc1 (stereo not drawn)	4	2
O=C(OCc1nc2ccccc2c(=O)[nH]1)c1cc2c(s1)CCCC2	1	-2
S=C(Nc1ccc(N2CCOCC2)cc1)NC1CC2CCC1C2 (stereo not drawn)	2	0
c1ccc(NC2CCCN(Cc3cccc(-n4cccn4)c3)C2)cc1 (stereo not drawn)	10&-4	1&-5
COc1ccc(C(=O)N(C)C2CCCN(Cc3ccccc3F)C2)c(OC)n1 (stereo not drawn)	2	-1
Clc1ccc(OCCCc2nc(-c3ccncc3)no2)c(Cl)c1	2	10
Cc1c(Cl)ccc2sc(N(CCCn3ccnc3)C(=O)c3ccco3)nc12	-10	-17
CCC(CC)C(=O)N(CCN(C)C)Cc1cc(NC(=O)c2ccco2)ccc1N(C)C	3	4
COc1cccc(-c2cccc3c2NC(=O)C3(C)Cc2cccc(F)c2)c1 (stereo not drawn)	3	2
CC1(C(=O)Nc2cccc(Oc3ccccc3)c2)CCN1Cc1ccccc1Cl (stereo not drawn)	8	0
N#Cc1ccc(OCc2coc(-c3cccs3)n2)cc1	3	2
CC(C)CNC(=O)c1csc(CN(CC(C)C)C(=O)Nc2ccc(C(C)C)cc2)n1	-3	9
CCN(C(=O)C1CCN(S(=O)(=O)c2ccc(C)c(C)c2)CC1)c1ccc(F)cc1	9	4
O=C(NCC1CCCO1)c1ccc(N2C(=O)C3CC=CCC3C2=O)cc1 (stereo not drawn)	4	0
CNc1ccc(-c2cccc(C#N)c2)cn1	-4	-3
CC(=O)Oc1c(-c2ccc(NS(=O)(=O)c3ccc(C)cc3)cc2)c(-c2ccc(N(C)C)cc2)nn1-c1ccc(F)cc1	5	2

This part in full, from the first entry:
SMILES	NPYLR7 ag	NPYLR7 ag max-min
CCc1ccc(NC(=O)c2cn(CC3CCCO3)cc3c(=O)n(-c4ccccc4)nc2-3)cc1 (stereo not drawn)	4	2
O=C(OCc1nc2ccccc2c(=O)[nH]1)c1cc2c(s1)CCCC2	1	-2
S=C(Nc1ccc(N2CCOCC2)cc1)NC1CC2CCC1C2 (stereo not drawn)	2	0
c1ccc(NC2CCCN(Cc3cccc(-n4cccn4)c3)C2)cc1 (stereo not drawn)	10&-4	1&-5
COc1ccc(C(=O)N(C)C2CCCN(Cc3ccccc3F)C2)c(OC)n1 (stereo not drawn)	2	-1
Clc1ccc(OCCCc2nc(-c3ccncc3)no2)c(Cl)c1	2	10
Cc1c(Cl)ccc2sc(N(CCCn3ccnc3)C(=O)c3ccco3)nc12	-10	-17
CCC(CC)C(=O)N(CCN(C)C)Cc1cc(NC(=O)c2ccco2)ccc1N(C)C	3	4
COc1cccc(-c2cccc3c2NC(=O)C3(C)Cc2cccc(F)c2)c1 (stereo not drawn)	3	2
CC1(C(=O)Nc2cccc(Oc3ccccc3)c2)CCN1Cc1ccccc1Cl (stereo not drawn)	8	0
N#Cc1ccc(OCc2coc(-c3cccs3)n2)cc1	3	2
CC(C)CNC(=O)c1csc(CN(CC(C)C)C(=O)Nc2ccc(C(C)C)cc2)n1	-3	9
CCN(C(=O)C1CCN(S(=O)(=O)c2ccc(C)c(C)c2)CC1)c1ccc(F)cc1	9	4
O=C(NCC1CCCO1)c1ccc(N2C(=O)C3CC=CCC3C2=O)cc1 (stereo not drawn)	4	0
CNc1ccc(-c2cccc(C#N)c2)cn1	-4	-3
CC(=O)Oc1c(-c2ccc(NS(=O)(=O)c3ccc(C)cc3)cc2)c(-c2ccc(N(C)C)cc2)nn1-c1ccc(F)cc1	5	2
FC(F)(F)c1cccc(Nc2nc(-c3cccs3)nc3ccccc23)c1	0	11
COc1ccccc1-n1c(SCC(=O)Nc2cc(C)on2)nc2c(c1=O)SCC2	-2	-3
COc1ccc(Br)cc1C=Cc1ccc2cccc(O)c2n1	-1	4
O=C(CCN1C(=O)c2ccccc2C1=O)N1CCOCCOCCN(C(=O)CCN2C(=O)c3ccccc3C2=O)CCOCC1	6	10
COc1ccc(C(=O)N2CCN(c3ccc(OC)c(OC)c3)C(=O)C2C)cc1 (stereo not drawn)	-9	-2
O=C(c1ccc(N2CCOC(c3ccc(Cl)cc3)C2)nc1)N1CCCC1 (stereo not drawn)	-5	-5
COc1ccc(CCN(Cc2ccc(C)o2)C(=O)CN(CCN2CCCC2)C(=O)c2ccccc2F)cc1OC	-1	1
COc1ccccc1N=c1oc2cc(O)ccc2cc1-c1nc2ccccc2[nH]1	81*	70*
O=C(NCCOc1ccccc1F)C(=O)N1CCCC1	3	0
CCCCC(=O)Nc1cccc(C(=O)N2[C@@H]3CC[C@H]2CNC(=O)C3)c1	3	1
COCCNC(=O)C1(C)CCCN(CCCC(=O)c2ccc(C)c(C)c2)C1 (stereo not drawn)	9	3
CN(CC(=O)Nc1ccc(F)c(F)c1F)C(=O)C1=COCCO1	9	4
CCN(CC)c1onc(-c2ccccc2)c1CN(CCN(C)C)C(=O)c1ccccc1OC	3	8
C[C@@]12C(=O)N(CC3CC3)c3ccccc3[C@@H]1[C@@H](C(N)=O)CN2C(=O)Nc1ccc2c(c1)OCO2	11	22
COc1ccc(Cl)cc1N1CC(c2nc3ccccc3[nH]2)CC1=O (stereo not drawn)	-2	5
O=C(CN1Cc2ccccc2OC(c2ccsc2)C1)N1CCCC1c1nccs1 (stereo not drawn)	-2	-8
N=C1/C(=C/c2cccs2)C(=O)N=C2SC(c3ccccc3)=NN12	-1	-1
COc1ccc(OCCN2CCN(CC(=O)NC(=O)NC(C)(C)C)CC2)cc1	11	5
CC(OC(=O)c1ccccc1F)C(=O)NC12CC3CC(CC(C3)C1)C2 (stereo not drawn)	13	8
O=S(=O)(c1ccc(Br)s1)N1CCOCC1	1&2	5&2
Cc1ccc(C)c(-n2nc(-c3cccs3)cc2C(=O)N2CCN(C/C=C/c3ccccc3)CC2)c1	17	26
CC(C)c1ccc(C2(C)NC(=O)N(CC(=O)Nc3ccc(C(N)=O)cc3)C2=O)cc1 (stereo not drawn)	-1	-4
CCCCCCc1ccc(C(=O)N(CCOC)Cc2ccc(OC)c(OS(C)(=O)=O)c2)cc1	-10	-2
Cc1cc(C(=O)Nc2cc(F)ccc2C)on1	7	2
CCOC(=O)c1cnn(Cc2ccc(C)cc2)c1N	4	4
Cc1oc2nc3c(c(=O)n(CC(C)C)c(=O)n3C)n2c1C	9	9
CC(C)Oc1ccccc1CC(=O)Nc1cccc(COCC2CC2)c1	-1	-2
Cn1nccc1C(=O)NC(C)(C)c1ccc(Cl)c(Cl)c1	6	7
NC(=O)C1CCCc2c1[nH]c1ccc(Cl)cc21 (stereo not drawn)	-4	-12
Cc1cccn2c(NC(C)(C)C)c(C3CCCCC3)nc12	-5	-4
O=c1nc(NCCO)ccn1-c1nc(-c2ccccc2)oc1-c1ccccc1	-1	2
CC(C)n1c(CN2CCCN3CCC[C@H]3C2)nc2ccccc21	0	0
CCn1c(C2CCNCC2)nn(Cc2ncccn2)c1=O	30	18
CNc1ccc(-c2cccc(CO)c2)cn1	2	-1
CC(Sc1nc2ccccc2c(=O)n1C1CCCC(C)C1C)C(=O)NC(N)=O (stereo not drawn)	2	1
COC(=O)c1cc(-c2ccc(OC)cc2OC)nc2c1c(C)nn2C1CCS(=O)(=O)C1 (stereo not drawn)	11	4
COc1ccc(C(=O)N2CCC3(CCNC3=O)CC2)c(OC)n1	8	10
Cc1ccc(OCCNC(=O)c2ccc(C)c(NC(=O)C3CC3)c2)cc1C	5	-5
O=C(c1cccc(F)c1)N(CCN1CCOCC1)Cc1nccn1Cc1ccc(C(F)(F)F)cc1	5	13
C=CCn1c(N2CCN(Cc3c(Cl)cccc3Cl)CC2)nc2c1c(=O)[nH]c(=O)n2C	-4	15
O=C(N=Nc1c(O)n(Cc2ccc(F)cc2)c2ccccc12)c1ccncc1	0	-4
O=C(c1cc(=O)[nH]c2cc(F)ccc12)N1CCCC(N2CCCC2)C1 (stereo not drawn)	4	8
Nc1cccc(-c2nc3cc(N)ccc3o2)c1	5	4
CCOC(=O)C1CCCN(C(=O)CSc2nc(Cl)cc(N3CCN(c4ccccc4F)CC3)n2)C1 (stereo not drawn)	-5	3
Remaining list, next part
SMILES	NPYLR7 ag	NPYLR7 ag max-min
Cc1csc2nc(O)c(C(=O)NCCC3=CCCCC3)c(=O)n12	-3	49
CCC1=NC(c2ccc(OC)cc2)N(O)C1(C)C (stereo not drawn)	-9	-16
Cc1ccoc1C(=O)NCCSc1cn[nH]n1	-2	-4
CN(NC(=O)c1ccc(OC(CCN2CCOCC2)c2cccs2)cc1)c1ccccc1 (stereo not drawn)	0	3
COc1cccc(NC(=O)NC(c2nnc3n2CCNCC3)C(C)C)c1 (stereo not drawn)	5	3
CCn1c(O)c(C=Nc2ncn[nH]2)c(=O)n(CC)c1=S	18	9
COc1ccc(Cn2ccc3c(nnc4c(-c5ccccc5)cnn43)c2=O)cc1OC	14	11
COC(=O)C1CCN(C(N)=O)CC1	1	-4
O=C(Nc1cnc2n1CCCC2)c1ccccc1-n1cncn1	-1	-2
Cc1nc(C)c(C(C)NC(=O)NC2CCCC(C)C2)s1 (stereo not drawn)	0	23
O=C(Nc1ccc2[nH]cc(CCN3CCc4ccccc4C3)c2c1)c1c(F)c(F)c(F)c(F)c1F	20	13
Cc1nc2nc(C(F)(F)F)[nH][n+]2c(C)c1CCC(=O)O	0	6
OCCNc1nccc2[nH]c(-c3cccc(C(F)(F)F)c3)nc12	-4	-10
Cc1noc(-c2ccccc2Cl)c1C(=O)NCCC1(C)OCCO1	6	0
Cc1ccc(Nc2cc(C)nc(N3CCN(C(=O)CC(C)C)CC3)n2)cc1	12	4
O=C(c1cccc(Br)c1)N1N=C(C(F)(F)F)CC1(O)c1ccc(Cl)cc1 (stereo not drawn)	1	1
Cc1cc2c(=O)[nH]c(CSCC(=O)Nc3nnc(C4CCCO4)s3)nc2s1 (stereo not drawn)	-1	38
O=S(=O)(NCCCN1CCOCC1)c1cc(Br)c(Br)s1	1	-1
Cc1ccccc1C(c1ncccc1C)N(C)C(=O)C1CCN(Cc2ccccn2)CC1 (stereo not drawn)	2	-1
COc1ccccc1C1CC(c2ccc(C)cc2C)=NN1C(=O)CN1CCN(C(C)=O)CC1 (stereo not drawn)	5	4
Cc1cc(Oc2cnn(-c3cccc(F)c3)c(=O)c2Nc2cccc(C(=O)NCc3ccc4c(c3)OCO4)c2)ccc1Cl	12	8
O=C1CSC(=O)N1CCN1C(=O)CSC1=O	4	2
COCCCN(CC(=O)N(Cc1ccccc1)Cc1ccc(C)s1)C(=O)Nc1c(C(C)C)cccc1C(C)C	18	16
COc1ccccc1OCC(=O)Nc1nn(C)c2c1C(C)CC(=O)N2 (stereo not drawn)	-18	-25
O=C(Nc1ccc(-n2nc(OCc3ccc(F)cc3)nc2-c2ccccc2F)cc1)Nc1ccc(F)cc1F	4	14
CCOC(CNc1ncnc2c1nnn2CC)OCC	9	5
CSc1ccc2cc(CN3CCC(N(C)C(C)=O)C3)c(=O)[nH]c2c1 (stereo not drawn)	2	-2
O=C(c1ccc2c(c1)OCO2)N1CCCC(OCc2ccccc2Cl)C1 (stereo not drawn)	-6	1
N#CCSc1nnc(COc2ccc(Cl)cc2)n1Cc1ccco1	2	16
CC1(C(=O)Nc2nc(-c3ccccc3Cl)cs2)Cc2ccccc2C(=O)O1 (stereo not drawn)	0	7
COc1ccc(C(=O)NCCc2cc3c(C)ccc(C)c3[nH]c2=O)cc1OC	1	4
c1ccc(CNc2ccn3nccc3n2)cc1	1	-2
NC(=O)C1CCCN(C(=O)c2ccc(-c3nc4ccccc4s3)s2)C1 (stereo not drawn)	9	5
Cc1ccc2nc(C(C#N)C(=O)c3ccc(S(=O)(=O)N4CCCC4)cc3)[nH]c(=O)c2c1 (stereo not drawn)	-1	-1
O[C@@H]1CN(c2ncnc3ccsc23)CC[C@H]1c1ccc2c(c1)OCO2	6	6
Cc1ccc(C(C)(C)C)cc1S(=O)(=O)N1CC(=O)Nc2ccccc21	-3	-3
Cc1ccc(NC(=O)C(C)OCc2ccccc2)nc1 (stereo not drawn)	4	2
Cc1ccc(-c2nc3cc(C)ccn3c2NC(=O)C2CCC2)cc1	-3	4
O=c1c2ccccc2nnn1COc1ccc(Br)cc1Cl	4	6
O=C(Cc1cccs1)Nn1cnc2c(cnn2-c2ccc(F)cc2)c1=O	4	2
COc1ccc(CCN2C(=O)C(O)=C(C(=O)c3cccs3)C2c2ccc(Cl)cc2)cc1 (stereo not drawn)	-1	-3
Cn1ccc(C(=O)Nc2cccc(Cn3cnc4ccccc43)c2)cc1=O	7	3
O=C(Nc1ccccc1F)c1sccc1S(=O)(=O)N1CCc2ccccc2C1	6	4
CCNC(=O)N(CCOC)Cc1cc(Cl)ccc1OS(C)(=O)=O	-2	9
CC(=O)c1ccc(NC(=O)c2cccc(S(=O)(=O)N3CCCCCC3)c2)cc1	-6	-12
Cc1[nH]c2ccccc2c1S(=O)(=O)CCNC(=O)Nc1ccc2c(c1)OCO2	4	4
Cn1c(=O)c2c(C(F)(F)F)cc(-c3cccnc3)nc2n(C)c1=O	7	5
CC(Sc1nnc(-c2cccs2)n1C1CC1)C(=O)N1C(C)CCCC1C (stereo not drawn)	-1	-3
Cn1c(SCc2nc3ccccc3c(=O)[nH]2)nc2ccsc2c1=O	-13	-19
Cc1nn(CC(=O)N2[C@@H]3CC[C@H]2CNC(=O)C3)c(=O)c2ccccc12	-1	-15
N[C@H](C(=O)O)[C@@H](OCc1ccccc1)C(=O)O	-10	-16
CCOc1ccccc1-n1c(-c2cn(CC)nc2C)n[nH]c1=O	-4	-7
O=C(c1cccc2ccccc12)N1CCC2(CC1)SCCN2C(=O)c1ccc(C(F)(F)F)cc1	-4	-6
Cc1nc(SCc2ccc(C(=O)NCCN(C)C)cc2)nc(N(C)Cc2ccccc2)c1C	2	7
CC(C)c1nnc2c(N(C)S(=O)(=O)c3ccccc3)nc3ccccc3n12	1	8
Cc1cccc(-n2ncc3c(=O)n4c(nc32)SCC4CC(=O)Nc2ncccc2C)c1 (stereo not drawn)	1	1
Cc1ccn2c(=O)nc(SCc3ccc(Cl)cc3Cl)nc2c1	2	4

Only part of the results is shown; rates above refer to the full screens.
